# Calb FLC – affects C. albicans growth with fluconazole. C. albicans CaCi-2 (fluconazole-resistant clinical isolate) + fluconazole, Alamar Blue growth, 48 h. growth inhibition, % (no concentration beside the values). AID 1979. 300,000 compounds, 0.57% hits;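 active means most replicates above 75%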;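 further: all wells also contain fluconazole at 8 µg/ml as a sub-toxic cotreatment; 0% = median of DMSO wells and 100% = median of geldanamycin control wells; wells of about 8 µL received 7.5 nL stock; the first replicate is given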
# ALR inh – inhibitors of human sulfhydryl oxidase ALR. P55789. purified ALR, DTT oxidation, H2O2 HRP-luminol luminescence. inhibition, % (test concentration not listed). 290,000 compounds, 3.8% hits;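 active means mean and each replicate at 75% or more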;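 further: stock transfer was 7.5 nL into about 7.5 µL; 0% = neutral wells and 100% = wells with inactivated enzyme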
# B2AR ag – human beta-2 adrenergic receptor agonism by FAP | 340,000 compounds, 0.43% hits | response, % (test concentration not listed) | Am2.2-beta2AR cells, FAP receptor internalization, flow cytometry; reference of the scale not given here | P07550;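 active means response above a set limit, near 3 SD of response in nonfluorescent compounds, cut at about 42% in these data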;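 further: stock transfer was 100 nL into about 11 µL; a reference agonist was the positive control; negative values mostly stem from fluorescent compounds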
# rRNA inh HTS – inhibitors of bacterial rRNA selective over humanized ribosomes. E. coli WT GFP vs humanized-ribosome RFP mutants, fluorescence, 24 h; active compounds read low; DMSO median 0, no signal -100. GFP signal change (wild-type ribosome), % (concentration not given with the values). 350,000 compounds, 1.6% hits;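 active means significant combined selectivity score with lowered wild-type GFP, culture density cut under 30%, mutant RFP and density less affected; inactive means any of these conditions unmet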; further: one replicate is shown; some compounds called inactive have numbers as strong as hits
# T cruzi repl – blocks replication of Trypanosoma cruzi | T. cruzi beta-gal in NIH3T3, luminescence, 90 h | inhibition, % (test concentration not listed) | 300,000 compounds, 1.4% hits | AID 1885;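 active means mean inhibition across valid replicates above about 55%, limit read from the data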;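 further: signal also drops with host cell toxicity which is not excluded here; 0% = plate median of DMSO wells and 100% = zero luminescence signal; higher percent means less beta-gal luminescence so fewer parasites; stock transfer was 50 nL into about 50 µL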
# A1 inh – inhibitors of the anti-apoptotic protein A1, read as caspase activation; MEF A1-2A-BIM cells, Caspase-Glo 3/7 luminescence, 3 h; percent of clofoctol response, vehicle zero; caspase activation, % (concentration not given with the values); 330,000 compounds, 0.066% hits;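 active means over half of replicate activation scores above 10%, or exactly half above 10 with the replicate mean above 10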;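 further: wells of about 30 µL received 50 nL stock; many hits fall short of the cut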
# LANA-H2A inh – blocks KSHV LANA binding to histone H2A/H2B; cell-free LANA-H2A/H2B peptide, fluorescence polarization; inhibition, % (test concentration not listed); 320,000 compounds, 0.6% hits; Q9QR71; in the data active means inhibition mostly above about 10%, no sharp cut-off; inactive means mostly below about 6.7%;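 further: stock transfer was 7.5 nL into about 10 µL; 0% = median of vehicle wells and 100% = median of positive control wells; one replicate is shown; the record names a cut of 25% in any replicate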
# Target sequence (Q9QR71 whole entry, looked up): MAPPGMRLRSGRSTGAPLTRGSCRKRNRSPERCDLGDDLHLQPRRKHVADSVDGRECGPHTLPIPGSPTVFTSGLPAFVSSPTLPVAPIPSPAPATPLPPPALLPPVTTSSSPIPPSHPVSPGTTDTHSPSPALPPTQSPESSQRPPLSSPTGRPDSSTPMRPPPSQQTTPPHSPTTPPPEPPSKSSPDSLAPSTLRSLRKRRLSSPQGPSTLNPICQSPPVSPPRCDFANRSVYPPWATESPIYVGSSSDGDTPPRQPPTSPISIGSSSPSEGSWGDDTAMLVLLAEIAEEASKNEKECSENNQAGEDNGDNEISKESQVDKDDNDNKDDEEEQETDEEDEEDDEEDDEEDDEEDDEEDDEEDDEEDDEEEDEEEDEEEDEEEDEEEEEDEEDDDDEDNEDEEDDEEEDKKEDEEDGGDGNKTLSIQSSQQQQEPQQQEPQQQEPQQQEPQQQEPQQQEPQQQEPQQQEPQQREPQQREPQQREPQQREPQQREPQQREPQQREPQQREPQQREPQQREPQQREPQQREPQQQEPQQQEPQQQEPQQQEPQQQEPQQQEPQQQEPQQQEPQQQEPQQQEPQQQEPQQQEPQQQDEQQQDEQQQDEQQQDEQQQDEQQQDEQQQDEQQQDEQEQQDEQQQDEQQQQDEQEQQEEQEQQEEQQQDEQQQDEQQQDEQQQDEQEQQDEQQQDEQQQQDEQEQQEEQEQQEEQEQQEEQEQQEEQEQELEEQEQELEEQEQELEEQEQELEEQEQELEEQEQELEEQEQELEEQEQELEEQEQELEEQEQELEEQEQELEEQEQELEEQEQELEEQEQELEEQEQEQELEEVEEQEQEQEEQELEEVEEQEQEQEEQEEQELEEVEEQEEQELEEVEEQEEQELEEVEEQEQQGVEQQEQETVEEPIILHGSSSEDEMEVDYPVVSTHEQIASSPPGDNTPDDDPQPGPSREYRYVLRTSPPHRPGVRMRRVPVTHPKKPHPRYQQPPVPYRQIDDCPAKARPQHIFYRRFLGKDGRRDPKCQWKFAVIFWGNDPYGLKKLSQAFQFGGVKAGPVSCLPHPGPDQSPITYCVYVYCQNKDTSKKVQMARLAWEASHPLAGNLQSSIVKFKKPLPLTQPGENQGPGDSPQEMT
# Beta apoptosis – beta cell apoptosis inhibition | INS-1E cytokine-induced death, ATP luminescence, 48 h; percent of positive-control rescue, neutral wells zero | protection from apoptosis, % (concentration not given with the values) | 300,000 compounds, 0.8% hits;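 active means all replicates at 75% or more, or half of them and the mean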;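 further: 0% = cytokine-treated negative control wells and 100% = positive control rescue; higher means more ATP so stronger rescue from cytokine killing; wells of about 40 µL received 100 nL stock; the first replicate is given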
# rRNA inh HTS OD600 – also measured in rRNA inh HTS; calls as there; OD600 change, %; measured here: OD600 growth;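 optical density of the mix in the first replicate; 0 = DMSO median and -100 = no signal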
# rRNA inh HTS RFP – further read-out of rRNA inh HTS, marked with its call; RFP signal change, %; measured here: RFP humanized mutant strains;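 first replicate; 0 = DMSO median and -100 = no signal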
# Active calls of the source: *; / = not tested or not shown. Some of the compounds tested (hit frequency here may not be typical).
SMILES,Calb FLC,ALR inh,B2AR ag,rRNA inh HTS,rRNA inh HTS OD600,rRNA inh HTS RFP,T cruzi repl,A1 inh,LANA-H2A inh,Beta apoptosis
O=C(CSc1nnc(Cn2c(=O)sc3ccccc32)n1-c1ccccc1)NCC1CCCO1 (stereo not drawn),1,-5,-6,-3,0,-0.2,1,0.3,0.2,-2
CCCn1ncc(CN2CCC(Cc3cccc(F)c3)(C(=O)OCC)CC2)c1C,-8,0,-1,-5,-8,-11,8,1.0,0.2,-12
O=C1OCCC1Sc1nc2cc(Cl)ccc2s1 (stereo not drawn),-12,-3,4,/,/,/,-13,-0.6,-6.7,-3
O=[N+]([O-])c1ccc(NCCOc2ccccc2Cl)nc1,16,-1,10,0,5,3.5,3,-0.9,-4.6,4
CCCCNCCCOc1cccc(Cl)c1Cl,-26,-5,3,4,-8,4.8,36,0.2,4.3,/
O=C(CNC(=O)N1CC(=O)Nc2ccccc21)NCCc1ccc(Cl)cc1,-3,-18,-7,-3,-4,-1.9,-19,-0.7,17*,-2
Cc1cscn1,/,-19,0,5,8,-0.7,/,-0.1,-9.8,-2
CCOC(=O)c1c(NC(=O)C2CCCCC2C(=O)O)sc2c1CCCCC2 (stereo not drawn),49,25,-1,-41,-52,4.0,14,0.0,-2.3,-1
Nc1ccccc1C#CCCCCO,-5,/,-2,6,4,1.6,-9,-0.6,2.3,-6
COc1ccccc1N1C(=O)C(Cl)=C(N2CCCC2)C1=O,-2,/,-6,10,8,4.9,12,0.5,-1.2,-10
O=C(O)c1ccccc1-n1c2ccccc2c2ccccc21,-9,-1,0,-5,-24,-6.5,-6,-0.1,-3.6,-4
CC1CC(C)CN(Cc2nc(N)nc(Nc3ccccc3)n2)C1 (stereo not drawn),-11,-2,-5,/,/,/,-14,0.0,9.5,5
Cc1c(C(=O)Nc2ccc(F)cc2)c2ccccn2c1CCc1ccncc1,4,2,-28,13,15,6.9,-22,-0.5,-5.3,9
CCc1c(C)n([O-])c2c([n+]1=O)CCCCC2,-2,-3,3,/,/,/,-6,-0.1,-1.7,0
COc1ccc(-n2nc([N+](=O)[O-])c(=NCCc3ccc(Cl)cc3)n2O)cc1,23,-7,-3,0,3,20,67*,-0.6,4.1,6
COc1ccccc1N1CCN(C(=O)c2oc3ccc(F)cc3c2C)CC1,47,4,1,-36*,-25*,-6.0*,-1,-0.4,-0.5,3
CCOC(=O)NC(=O)CSc1nc2ccc([N+](=O)[O-])cc2[nH]1,-5,0,4,9,5,1.2,-7,-0.1,-3.2,4
CCOc1cccc(C(=O)Nc2ccc(S(=O)(=O)Nc3cc(C)on3)cc2)c1,-8,-3,3,-2,3,-0.8,-5,-0.8,0.5,-7
CC(C)(C)C(O)/C=C/c1ccc2c(c1)OCO2 (stereo not drawn),/,7,/,/,/,/,5,-2.2,9.7,1
Cc1ccc(SCCC(=O)NCC2CCCO2)cc1 (stereo not drawn),0,28,5,/,/,/,-22,2.0,1.8,2
CN1C(=O)N(C)C2C1N(CN1CCCCC1)C(=O)N2CN1CCCCC1 (stereo not drawn),19,-3,-2,/,/,/,-20,-0.2,-2.0,0
COc1cccc2cc(-c3cc(=O)oc4ccc(OCC(C)=O)cc34)oc12,3,0,10,3,6,3.9,19,-0.5,-0.1,/
O=C(CCc1ccc(Oc2cc([N+](=O)[O-])cc([N+](=O)[O-])c2)cc1)Nc1cccc(Cl)c1,-5,/,-5,/,/,/,50,-0.4,3.1,-2
Cc1ccc(CNC(=O)C2CCC(CNS(=O)(=O)c3cccs3)CC2)cc1 (stereo not drawn),1,-2,14,5,11,-1.2,0,0.1,8.3,5
COc1ccc(NC(=O)C(c2ccc(Cl)cc2)C(C)C)cn1 (stereo not drawn),12,-22,5,/,/,/,3,-0.1,-13,-3
COc1cccc(-c2csc(NC3OC(=O)c4c3ccc(OC)c4OC)n2)c1 (stereo not drawn),-1,97*,1,1,0,-1.5,-1,-2.6,-1.6,-32
COCCN(C(=O)CSc1ccc2c(c1)OCCO2)c1c(N)n(CC(C)C)c(=O)[nH]c1=O,/,94*,1,-2,5,-6.1,/,-0.7,1.0,1
Cc1n[nH]c(=O)nc1NCC1CCCO1 (stereo not drawn),32,/,-7,/,/,/,-2,0.9,1.1,-5
COC(=O)c1c(C)[nH]c(C(=O)C(C)Sc2nnc(-c3cc(OC)c(OC)c(OC)c3)o2)c1C (stereo not drawn),5,19,-1,/,/,/,-3,0.0,3.0,13
O=C1C(C2=NC(c3ccccn3)C3C(=O)N(c4ccccc4)C(=O)C23)=C(O)c2ccccc21 (stereo not drawn),-4,-3,2,2,1,1.2,0,0.7,0.2,5
Cc1cc(N2CCC(C)CC2)n2ncc(-c3ccccc3)c2n1,9,3,8,/,/,/,21,-0.5,5.2,5
O=C1CCCN1CC(=O)N1CCCC(Nc2cccc(F)c2)C1 (stereo not drawn),-1,27,-7,6,6,-1.8,-21,1.1,-5.1,-8
CC#CC[N+](C)(C)CC(=O)c1ccccc1,4,5,2,11,2,-2.0,-5,1.2,-2.7,-3
COc1ccc(N2CCC(CNC(=O)Nc3cccc(OC)c3)C2)cc1 (stereo not drawn),-12,82*,10,/,/,/,12,0.7,-6.8,6
CC1=NN(c2nc(-c3ccc(C)cc3)cs2)C(=O)C1N=Nc1ccc(C(N)=O)cc1 (stereo not drawn),21,11,10,8,12,4.7,-7,1.0,2.6,79*
CC(C)Nc1nc(-c2ccncc2)nc(-c2ccc(Cl)cc2)c1C#N,-22,-8,-2,15,19,-0.2,5,-0.5,-5.4,/
Cc1noc(C)c1C(=O)N1CCN(c2ccc(OCc3ccccc3)cc2)CC1,1,/,3,-6,-10,0.6,1,-0.2,2.4,3
CN(c1ccccc1)S(=O)(=O)c1cccc(NC(=O)CCNC(=O)c2ccc(Cl)cc2)c1,/,-4,15,-30,-50,0.4,/,0.6,165*,-3
Cc1cccc(NC(=S)NCCN2CCOCC2)c1,-4,36,-5,/,/,/,-8,0.1,0.0,/
N#Cc1c(NC(=O)C2CC(c3ccccc3Cl)=NO2)sc2c1CCC2 (stereo not drawn),-4,/,4,-9,-12,0.1,10,0.6,-0.8,-1
COc1cccc(C2C3=C(CC(C)(C)CC3=O)Nc3n[nH]c(C)c32)c1 (stereo not drawn),-2,15,3,-4,-8,-4.0,-4,0.4,-5.4,-7
C=CCn1c(SCC(=O)Nc2ccc(-c3nc4ccc(C)cc4s3)cc2)nnc1-c1ccncc1,-3,/,58*,/,/,/,-9,0.4,-2.8,-12
CCN(C(=O)COn1nnc2ccc(S(=O)(=O)N(C)C)cc21)C1CCS(=O)(=O)C1 (stereo not drawn),/,-2,29,10,11,-0.6,/,-1.7,2.4,-2
Cc1onc(-c2ccccc2)c1C(=O)N(C)CCc1ccccn1,-1,-2,-4,4,2,-2.1,-2,0.2,-6.0,-4
CCn1c(CNC(=O)c2ccccc2F)nnc1SCc1nc2ccccc2c(=O)[nH]1,-5,-3,/,13,8,0.2,10,0.4,11,-3
CN1C=CC(=CC=C2C=CC(=O)C=C2)C=C1,-8,68,0,12,13,4.6,1,0.3,-13,-2
O=C(CNC(=O)Cn1ccc2ccccc2c1=O)NCCCN1CCN(c2cccc(Cl)c2)CC1,9,4,-3,/,/,/,-1,1.1,1.6,0
Cc1ccc2nc(-c3ccc(N4C(=O)CC(N5CCC(C(N)=O)CC5)C4=O)cc3)sc2c1 (stereo not drawn),-3,7,/,/,/,/,-16,1.4,1.1,-8
CN(CC(O)COc1ccccc1F)C1CCCCC1 (stereo not drawn),-9,4,-3,22,18,1.5,-1,-0.7,4.4,8
CCOC(=O)c1sc(=S)n(-c2cccc(OC)c2)c1N,-4,48,8,-20,-26,-8.5,3,-0.5,1.1,0
CC(NC(=O)CCCCCN1C(=O)c2ccccc2C1=O)c1ccc2c(c1)CCCC2 (stereo not drawn),14,-2,-14,-2,-2,-4.9,16,0.3,6.3,3
CNC(=S)NNC(=O)COc1cccc(C)c1C,-5,1,1,-16,-13,4.7,-10,0.2,3.7,-2
CSCCNC(=O)c1ccc(C(C)(C)C)cc1,6,-11,-7,/,/,/,11,-8.4,-2.6,0
CC(C)Cc1nnc(NC(=O)CN2C(=O)C3CCCCC3C2=O)s1 (stereo not drawn),5,-7,0,-2,-5,-2.1,3,0.4,7.9,/
O=[N+]([O-])c1ccccc1/C=C/C=N/N1CCCCC1,-17,-4,0,-4,-11,-4.7,-3,-4.0,-2.4,/
CCn1c(SCC(=O)NCCc2ccccc2)nc2c(c1=O)SC(C)C2 (stereo not drawn),-21,-12,-4,-6,-4,0.6,5,0.3,4.2,3
O=C(O)CCC(=O)Nc1ccccc1C(=O)NC1CCCCC1,-8,4,-3,/,/,/,-2,1.0,-7.0,-3
O=C(c1ccccc1)n1ccc(-c2cnc(-c3ccccc3)s2)n1,-9,-5,2,/,/,/,-9,-8.0,1.6,/
COc1cc(S(=O)(=O)N(C)C)ccc1F,-16,-30,6,/,/,/,-2,1.0,3.8,-1
COc1ccc(C2=NOC(C(=O)NCc3cccs3)C2)cc1OC (stereo not drawn),8,-9,/,/,/,/,-6,-0.5,-0.8,-8
# (continued)
SMILES,Calb FLC,ALR inh,B2AR ag,rRNA inh HTS,rRNA inh HTS OD600,rRNA inh HTS RFP,T cruzi repl,A1 inh,LANA-H2A inh,Beta apoptosis
CC(=O)c1ccc(N2CCN(C(=O)c3ccc(OCc4c(C)noc4C)cc3)CC2)cc1,-4,-13,3,/,/,/,-32,-0.3,1.3,2
CCOc1ccc(NC(=S)Nc2cc(-c3ccccc3)[nH]n2)cc1,33,-6,1,/,/,/,12,0.0,2.2,4
CCOC(Cn1cc(C)c(=O)[nH]c1=O)OCC,2,-2,-2,9,15,3.0,-14,0.6,-0.2,0
CCCC(OC(=O)CN1C(=O)COc2ccccc21)C(=O)NC1CCCC1 (stereo not drawn),9,-2,-5,7,3,-9.2,-8,0.2,3.6,-8
O=C(CS(=O)(=O)Cc1ccccc1)Nc1ncccn1,-2,6,1,/,/,/,3,-1.7,2.7,-7
CCOC(=O)/N=C(/NC(=O)Nc1ccc(C(=O)OCC)cc1)OC,-2,-10,-4,/,/,/,-6,-0.4,-1.1,-2
CC(=O)c1cccc(NC(=O)c2cccc3ccccc23)c1,-5,1,0,-4,-13,-1.8,-1,-0.5,3.0,2

# From PubChem
